# Menin MLL FP FL: qHTS Assay for Inhibitors Targeting the Menin-MLL Interaction in MLL Related Leukemias: Competition With Fluorescein Labeled MLL-derived Peptide; Fluorescence polarization, fluorescein-MLL peptide displacement from menin; FP activity change, % at 61.4 µM; 290,000 tested, under 10 active; inconclusive = falling polarisation curve, or a change in total fluorescence; inactive = total fluorescence flat and polarisation flat or rising; no compound was filed as active; the % refers to the polarisation; negative = inhibition;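 also: % of control where 0% means no effect; inhibitors lower the polarisation; unlabelled MLL peptide was the positive control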
# ClpP mod: qHTS Assay for Activators of ClpP. ATP-dependent Clp protease proteolytic subunit (Bacillus subtilis (strain 168)), P80244. purified B. subtilis ClpP, FRET peptide cleavage, 20 min. Potency, µM (series often up to 57.5 µM), without a hit: at the top dose activity change, negative = active. 340,000 compounds, 1.9% hits; active = well fitted falling curve with a large enough effect; inconclusive = small, poorly fitted or top-dose-only effect; inactive = no such curve, though single readings can be large or run the other way; also: potency is read from the fitted curve at half-maximal effect; the source files actives as falling curves though it sought activators and does not explain the sign; nearly all actives have a fitted effect of over 65% in size; many hits overshoot -100%
# Target sequence (P80244 whole entry, looked up): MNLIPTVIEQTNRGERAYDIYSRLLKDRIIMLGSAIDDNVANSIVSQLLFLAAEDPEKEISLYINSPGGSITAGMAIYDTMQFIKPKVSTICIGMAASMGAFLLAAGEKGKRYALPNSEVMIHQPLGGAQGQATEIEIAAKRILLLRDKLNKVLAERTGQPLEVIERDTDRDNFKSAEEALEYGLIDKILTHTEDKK
#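 Purified B. subtilis ClpP, 10 microg/mL final in Tris/HCl pH8 with KCl, BSA, glycerol and Tween-20, cleaved an Abz/nitrotyrosine-quenched decapeptide. Fluorescence (ex 320, em 430) was read at 0 and 20 min at room temperature. Delta was normalized to 5.8 microM ADEP and DMSO/no-enzyme controls.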
# gsp ag: qHTS for Agonist of gsp, the Etiologic Mutation Responsible for Fibrous Dysplasia/McCune-Albright Syndrome: qHTS | gsp mutant cells, cAMP HTRF, 30 min; control for the full effect not named in the record | Potency, µM (series often up to 76.9 µM), without a hit: at the top dose activation (cAMP increase), most hits filed as activators | 340,000 compounds, 0.13% hits | AID 624287, 2012; active = well fitted activation curve with a large enough effect; inconclusive = small, poorly fitted or top-dose-only effect, or another doubt; inactive = no such curve, though single readings can be large or run the other way; cell line not stated here;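 also: phosphodiesterase inhibitor Ro 20-1724 added with compounds to block cAMP breakdown; potency is read from the fitted curve at half-maximal effect; nearly all actives have a fitted effect of over 60% in size; about a fifth of the inactives were tested at one dose only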
#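 Cells stably selected in G418 were plated at 2000/well, grown 16-24 hr, then given compounds in DMSO with the PDE inhibitor […] (300 uM solution added) for 30 min at 37C; cAMP was read by HTRF.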
# D2 PAM: Beta-Arrestin HTS for Positive Allosteric Modulators of the Human D2 Dopamine Receptor: Potentiators. DiscoveRx D2 beta-arrestin cells, luminescence, 90 min; 100% = 57 uM dopamine signal. 360,000 compounds, 0.23% hits. potentiation, % (concentration not given with the values). D(2) dopamine receptor (Homo sapiens), P14416; active = potentiation of 50% or more; inconclusive = 30% to 50%; inactive = 30% or less;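 also: tested on top of an EC20 dose of dopamine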
#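 D2 cells co-treated with compound plus 50 nM dopamine (EC20) for 90 min at 37 deg C to detect potentiation. Beta-arrestin recruitment was read as enzyme-fragment luminescence after 1 h at ambient temperature. Full response was set by 57 uM dopamine.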
# gsp antagonist: qHTS for Antagonists of gsp, the Etiologic Mutation Responsible for Fibrous Dysplasia/McCune-Albright Syndrome: qHTS; gsp-mutant cells, cAMP HTRF, 30 min; control for the full effect not named in the record; Potency, µM (titrated, usually from 76.9 µM), for the others: at the highest dose activity change, negative = inhibition, most hits filed as inhibitors; 340,000 compounds, 0.4% hits; AID 624288, 2012; active = falling curve of any shape with a large fitted effect; inconclusive = falling curve, mostly with a smaller effect; inactive = flat or rising curve; cell line not stated here;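 also: intracellular cAMP measured with PDE inhibitor Ro 20-1724 present during compound exposure; potency is read from the fitted curve at half-maximal effect; % is scaled to controls: 0 for no effect and ±100 for the full control effect; nearly all actives have a fitted effect of over 65% in size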
#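 G418-selected cells were plated in DMEM/10% FBS for 16-24 h at 37C, then treated with compounds plus the PDE inhibitor […] (300 uM solution added) for 30 min at 37C. Intracellular cAMP was measured by HTRF after 30 min lysis at room temperature.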
# TRPV1 PAM: HTS Assay for Compounds that Act as Potentiators of the Vanilloid Receptor 1; TRPV1-expressing cells, Fluo-8 calcium influx, capsaicin EC20 potentiation; host cell line not named in the record; control for the full effect not named in the record; AID 540277, 2011; Transient receptor potential cation channel subfamily V member 1 (Homo sapiens), Q8NER1; potentiation, % at 8.33 µM; 320,000 compounds, 0.02% hits; active means potentiation above 80%; inconclusive means 30% to 80%; inactive means below 30%; also: 0% is about no effect
# Target sequence (Q8NER1 whole entry, looked up): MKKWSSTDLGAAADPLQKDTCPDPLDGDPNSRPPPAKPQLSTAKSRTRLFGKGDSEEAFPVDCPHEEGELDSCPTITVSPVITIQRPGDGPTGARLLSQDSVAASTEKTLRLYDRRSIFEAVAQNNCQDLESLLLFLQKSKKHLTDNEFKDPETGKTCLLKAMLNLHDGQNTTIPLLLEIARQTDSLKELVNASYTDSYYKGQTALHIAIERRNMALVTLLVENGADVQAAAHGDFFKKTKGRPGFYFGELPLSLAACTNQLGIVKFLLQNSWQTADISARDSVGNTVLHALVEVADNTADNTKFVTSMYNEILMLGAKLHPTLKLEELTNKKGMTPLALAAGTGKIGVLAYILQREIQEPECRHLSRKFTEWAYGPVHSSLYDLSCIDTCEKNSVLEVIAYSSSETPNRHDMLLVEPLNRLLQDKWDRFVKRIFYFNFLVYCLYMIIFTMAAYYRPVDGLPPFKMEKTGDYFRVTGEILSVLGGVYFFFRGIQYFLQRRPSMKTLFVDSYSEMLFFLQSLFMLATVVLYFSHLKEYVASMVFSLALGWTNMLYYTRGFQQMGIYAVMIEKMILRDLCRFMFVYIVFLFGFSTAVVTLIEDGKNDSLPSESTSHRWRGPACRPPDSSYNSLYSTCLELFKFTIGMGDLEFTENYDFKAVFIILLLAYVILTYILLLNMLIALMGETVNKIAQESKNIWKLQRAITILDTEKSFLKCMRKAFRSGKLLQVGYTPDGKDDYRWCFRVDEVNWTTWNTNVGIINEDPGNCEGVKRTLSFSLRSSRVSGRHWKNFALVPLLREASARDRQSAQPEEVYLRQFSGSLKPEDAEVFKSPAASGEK
#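 Cells expressing TRPV1 were dye-loaded with Fluo-8 and read kinetically: 10 s baseline, 3 min after compound (agonist portion), then 2 min after EC20 capsaicin (allosteric enhancer portion). Calcium-bound dye fluorescence at 480/520 nm.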
# Sfp PPTase inh: qHTS Assay for Inhibitors of Bacillus subtilis Sfp phosphopantetheinyl transferase (PPTase); 4'-phosphopantetheinyl transferase ffp (Bacillus subtilis), Q9F4F7; Biochemical Sfp PPTase activity, qHTS; Potency, µM, without a hit: max response, negative = inhibition, actives largely listed as inhibitors; 310,000 compounds, 3.5% hits; AID 1490, 2009; active = well fitted inhibition curve with a large enough effect; inconclusive = small, poorly fitted or top-dose-only effect, or another doubt; inactive = no such curve, though single readings can be large or run the other way;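 also: the enzyme is Sfp with the accession as filed and its product quenches rhodamine fluorescence; potency is read from the fitted curve at half-maximal effect; 0% = enzyme reaction without inhibitor and -100% = no enzyme wells; top concentration of the series not given in the record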
#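 Sfp 15 nM + cpd, 15 min RT; start w/ rhodamine-CoA 5 uM, BHQ-2-YbbR 12.5 uM (final); 50 mM Hepes pH 7.6, 10 mM MgCl2, 0.01% NP-40, 0.01% BSA; read 525/598 nm at 0 and 30 min.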
# Numbers without * were called inactive; ? = inconclusive; . = no result given; [ ] = another dose, or the depositor's remark.
1. O=C(CCc1nc(-c2ccccc2F)no1)NCCN1CCc2ccccc2C1
2. NC(=O)CC[C@@H]1NC(=O)[C@H](CO)NC(=O)c2cc([N+](=O)[O-])cc(I)c2NCCCC[C@@H](C(N)=O)NC(=O)[C@H](Cc2ccc(O)cc2)NC1=O
3. COc1ccc(CC(=O)NC(=S)Nc2cccc(CO)c2)cc1
4. COc1ccc(/C=N/NC(=O)c2cc(-c3ccccc3)nc3ccccc23)c(C(=O)O)c1OC
5. COC(=O)c1nn(-c2ccc(OC)cc2)c(=O)c2c(N)sc(C)c12
6. CC(C)(C)C1CCc2c(C(=O)NNC(=O)CCCC(=O)O)csc2C1 (stereo not given)
7. CCC(C)(C)NC(=O)C1CCCN(S(=O)(=O)c2ccc3c(c2)CC(C)N3C(=O)C2CC2)C1 (stereo not given)
8. O=C1c2ccccc2C(=O)N1CC(O)CNc1ccc(Br)cc1 (stereo not given)
compound no.	1	2	3	4	5	6	7	8
Menin MLL FP FL	3.5	-1.5	.	1.1	1.0	2.5	1.6	.
ClpP mod	2.4%	0.0%	0.6%	-2.3%	-0.2%	-0.7%	-2.2%	-3.4%
gsp ag	-30%	-24%	11%	17%	-21%	-8%	-2%	-3%
D2 PAM	-29	7	-2	2	-29	-9	-19	10
gsp antagonist	6%	2%	1%	2%	1%	11%	5%	-4%
TRPV1 PAM	2	1	.	26	14	-1	-7	12
Sfp PPTase inh	-7%	2%	.	28%	35µM*	-4%	24%	-2%

# Of the compounds above, these contain an aryl methoxy group.
3. COc1ccc(CC(=O)NC(=S)Nc2cccc(CO)c2)cc1
4. COc1ccc(/C=N/NC(=O)c2cc(-c3ccccc3)nc3ccccc23)c(C(=O)O)c1OC
5. COC(=O)c1nn(-c2ccc(OC)cc2)c(=O)c2c(N)sc(C)c12
compound no.	3	4	5
Menin MLL FP FL	.	1.1	1.0
ClpP mod	0.6%	-2.3%	-0.2%
gsp ag	11%	17%	-21%
D2 PAM	-2	2	-29
gsp antagonist	1%	2%	1%
TRPV1 PAM	.	26	14
Sfp PPTase inh	.	28%	35µM*

# Next section
9. O=C(Nc1sc2c(c1C(=O)NCC(O)CO)CCCC2)c1ccccc1 (stereo not given)
10. CN(Cc1ccc(OC(F)F)cc1)C(=O)/C=C/c1ccc(S(=O)(=O)N2CCOCC2)cc1
11. COc1cccc(C2=CC(=O)C[C@H](c3ccc4c(c3)OCO4)C2)c1
12. CCc1ccccc1NC(=S)NC1CC2CCC(C1)N2Cc1ccco1 (stereo not given)
13. O=C(OCC(=O)c1ccc[nH]1)c1ccc(S(=O)(=O)C(F)F)cc1
14. O=C(NC(CO)(CO)CO)[C@@H]1CCCN1S(=O)(=O)c1cccc2cccnc12
15. COc1ccc(OCC(=O)OCC(=O)NC2CCCCC2C)cc1 (stereo not given)
16. Cc1cc(N2C(=O)C(O)=C(C(=O)c3cccs3)C2c2cccc(Br)c2)no1 (stereo not given)
compound no.	9	10	11	12	13	14	15	16
Menin MLL FP FL	.	.	.	-0.2	.	.	.	?
ClpP mod	.	-0.9%	-3.0%	-2.8%	-0.2%	0.0%	-0.3%	.
gsp ag	12%	-4%	?	-8%	-17%	.	4%	14%[15.4 µM]
D2 PAM	-6	-6	-3	-24	-8	-6	1	-8
gsp antagonist	-21%	-17%	-23%	-2%	.	19%	6%	-14%
TRPV1 PAM	.	.	-4	-12	.	-25	-14	2
Sfp PPTase inh	.	.	.	20%	.	.	.	1%

17. COc1ccc(N2CC(O)(c3ccc(OC(F)F)cc3)[N+]3=C2CCCC3)cc1 (stereo not given)
18. CCCCc1cc(=O)oc2cc(OCC(=O)NC(Cc3c[nH]c4ccc(O)cc34)C(=O)O)ccc12 (stereo not given)
19. CCOC(=O)c1sc(NS(=O)(=O)c2cc(C)ccc2C)nc1C
20. CCN(CC)CCCNC(=O)c1sc2nc(-c3ccc(F)cc3)cn2c1C
21. CC(=NCc1ccc2c(c1)OCO2)C1=C(O)c2ccccc2C1=O
22. Cc1ccnc(SCCn2c(Br)nc3c2c(=O)[nH]c(=O)n3C)n1
23. O=C(Nc1ccc2nn(-c3ccccc3)nc2c1)c1cccnc1
24. CC(C)CC(c1nnnn1C1CCCC1)N1CCN(c2ccccc2F)CC1 (stereo not given)
compound no.	17	18	19	20	21	22	23	24
Menin MLL FP FL	-0.8	-0.2	2.8	2.0	1.7	2.2	1.0	3.0
ClpP mod	0.3%	?	-2.2%	-1.6%	-0.2%	0.1%	-2.9%	-0.3%
gsp ag	-2%[15.4 µM]	.	14%	?	29%	0%	-23%	-2%
D2 PAM	-10	-16	9	-20	-3	5	-14	-12
gsp antagonist	10%	3%	?	17%	-19%	5%	-16%	-22%
TRPV1 PAM	?	7	1	-1	-1	-1	5	-4
Sfp PPTase inh	8%	-9%	3%	8%	-4%	5%	8%	1%

25. CCOC(=O)CNC(=O)CSc1nnc(CCc2nc3ccccc3[nH]2)n1C
26. CCN1CCN(C(c2cccs2)C(C)NS(=O)(=O)c2ccccc2)CC1 (stereo not given)
27. O=C(CCC1CCCC1)N[C@@H](Cc1ccc(O)cc1)C(=O)O
28. CCC(=O)c1ccc(OCC(=O)N2CCc3cc(OC)c(OC)cc3C2)cc1
29. Cc1nn(C)cc1CNC(=O)COc1ccc(Cl)cc1Cl
30. COc1ccc(C(=O)N[C@H](C(=O)NCc2cccs2)C(C)C)cc1
31. Cc1cccc(-c2nc(CNC(=O)c3ccco3)cs2)c1
32. COCC(C)n1c(SCC(=O)Nc2oc(C)c3c(C)n[nH]c(=O)c23)nc2ccccc2c1=O (stereo not given)
compound no.	25	26	27	28	29	30	31	32
Menin MLL FP FL	-4.8	1.1	1.7	3.2	5.9	0.4	1.7	.
ClpP mod	0.4%	-0.9%	-0.4%	0.0%	-5.8%	-0.1%	-14%	-5.7%
gsp ag	-43%[inhibitor]	?	-7%	-13%	7%	-22%	-12%	?
D2 PAM	-14	-7	-4	-2	18	-2	-20	6
gsp antagonist	4%	-6%	8%	-28%	-5%	16%	4%	11%
TRPV1 PAM	?	25	?	19	-9	0	-16	3
Sfp PPTase inh	1%	-4%	-7%	13%	14%	22%	-4%	9%

33. Cc1csc(NC(=O)C2CCC(C)(C(=O)O)C2(C)C)n1 (stereo not given)
34. Cc1csc(/C(=N/OC(=O)c2ccco2)C(N)=O)n1
35. O=C(N/N=C/c1ccc(OC2CSC2)cc1)c1ccccc1
36. COc1ccc(-c2ccnc(SCC(=O)c3ccc(Cl)cc3)n2)cc1
37. O=C(NCCCN1CCOCC1)c1cc(-c2cccc(Br)c2)nc2ccccc12
38. c1ccc(Cn2c(-c3ccccc3)nc3nc4ccccc4nc32)cc1
39. Clc1nc(Oc2ccccc2)nc(-c2cn(-c3ccccc3)c3ccccc23)n1
40. COc1ccccc1NC(=O)N(C)C[C@@H]1OCc2cnnn2CCCC(=O)N([C@H](C)CO)C[C@H]1C
compound no.	33	34	35	36	37	38	39	40
Menin MLL FP FL	3.3	-0.1	-1.6	1.5	.	.	1.9	.
ClpP mod	0.8%	0.9%	0.1%	-1.6%	-3.6%	32µM*	3.6%	-1.7%
gsp ag	-63%[inhibitor]	15%	?	-9%	13%	27%	-38%[inhibitor]	-77%[inhibitor]
D2 PAM	-10	-3	-10	-5	-20	14	2	-11
gsp antagonist	-5%	-3%	-5%	-2%	-2%	-17%	-6%	.
TRPV1 PAM	10	0	-25	-5	-12	16	-1	.
Sfp PPTase inh	13%	?	-11%	-6%	-17%	-11%	-5%	.

41. O=C(CSc1nc2scc(-c3ccccc3)c2c(=O)[nH]1)NC1CCCCC1
42. CCOc1ccc(S(=O)(=O)NCC2CCCO2)cc1NC(=O)c1ccccc1F (stereo not given)
43. CC(NC(=O)c1ccccc1F)C12CC3CC(CC(C3)C1)C2 (stereo not given)
44. CCC(C)N(C(=O)COC(=O)c1ccc(=O)n(Cc2ccccc2)n1)C1CCS(=O)(=O)C1 (stereo not given)
45. COc1cc([C@H]2OC[C@H]3[C@@H]2CO[C@H]3c2ccc(O)c(OC)c2)ccc1O
46. Nc1nonc1C(=O)NCCNCc1ccccc1
47. CC(C)Oc1cccc(C(=O)N/N=C/c2coc3ccccc3c2=O)c1
48. CC(C)OC(=O)c1ccc(N2CCN(c3ccccc3F)CC2)nc1
49. O=C(N/N=C/c1ccc(O)cc1O)C(=O)N/N=C/c1ccc(O)cc1O
50. O=C(c1cccc(Cl)c1)C1CCCN(C(=O)c2ccc3c(c2)OCO3)C1 (stereo not given)
51. COC(=O)c1cc2c(=O)n3cccc(C)c3nc2n(Cc2cccnc2)c1=N
compound no.	41	42	43	44	45	46	47	48	49	50	51
Menin MLL FP FL	18	-0.7	.	.	.	4.7	.	-4.9	?	.	14
ClpP mod	.	.	0.3%	0.6%	0.9%	-2.6%	36%	?	.	-0.2%	.
gsp ag	.	19%	.	15%[15.4 µM]	13%	-16%	?	17%	4%	-25%	.
D2 PAM	.	-8	-7	-7	1	-30	1	-6	2	-6	.
gsp antagonist	.	13%	-7%	2%	-2%	3%	-9%	1%	2%	-12%	.
TRPV1 PAM	12	1	28	-3	.	-12	4	-3	1	-7	-11
Sfp PPTase inh	-6%	15%	.	.	.	16%	9%	?	16%	18%	7%
